INS promoter inh: TRM-6 insulin promoter activity inhibition; TRM-6 cells (human fetal islet line), insulin promoter-eGFP reporter, imaging; reporter expression induced with tamoxifen; inhibition, % at 2 µM; actives 0.9% (n = 130,000); AID 1273;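 active = inhibition above the mean plus 3 SD, with well images judged a real hit on visual review, cut at about 60% in these data, passing the limit was not always enough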
RGS16-Gao HTS: regulators of human RGS16-Galphao interaction; bead-based flow cytometry RGS16-Galphao binding, fluorescence; actives lie on both sides; actives 0.38% (n = 220,000); O15492+P09471; binding response (% of control), % at 10 µM;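 active = below 25% or above 175%, edge rows of some plates excepted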;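 note: Galphao activated by GDP with aluminum fluoride before binding; 100% = wells without compound and 0% = beads without RGS; some results beyond the cut were filed as inactive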
Target sequence (O15492 whole entry, looked up): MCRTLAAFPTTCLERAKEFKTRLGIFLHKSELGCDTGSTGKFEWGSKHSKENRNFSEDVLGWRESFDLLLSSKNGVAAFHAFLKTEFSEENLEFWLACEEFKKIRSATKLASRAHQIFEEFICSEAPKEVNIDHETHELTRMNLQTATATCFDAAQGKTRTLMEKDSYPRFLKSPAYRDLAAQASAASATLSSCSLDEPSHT
Target sequence (P09471 whole entry, looked up): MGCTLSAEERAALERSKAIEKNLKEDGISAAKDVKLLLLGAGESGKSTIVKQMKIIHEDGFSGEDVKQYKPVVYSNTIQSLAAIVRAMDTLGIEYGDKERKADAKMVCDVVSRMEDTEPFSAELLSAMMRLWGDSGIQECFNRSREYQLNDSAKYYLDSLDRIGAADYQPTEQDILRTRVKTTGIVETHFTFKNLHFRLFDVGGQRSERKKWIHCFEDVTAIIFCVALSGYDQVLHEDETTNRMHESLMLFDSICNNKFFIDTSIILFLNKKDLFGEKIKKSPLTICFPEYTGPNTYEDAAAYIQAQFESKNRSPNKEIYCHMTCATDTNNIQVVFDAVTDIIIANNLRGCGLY
HSV replic up: increases HSV replication in cells. HSV replication augmentation in cells, fold increase. maximum fold increase. actives 0.005% (n = 220,000);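 active = peak rise of 1.5-fold or more in the series; tested in PC3 cells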;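 note: first round at 10 µM; read as green reporter fluorescence; hits show the peak of a series up to 25 µM; 1 = signal of infected wells without compound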
GALR2 agonist: activates the human galanin receptor 2 | O43603 | GALR2-expressing cells, agonist activation read-out | activation, %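 (tested at 5 µM)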 | actives 0.48% (n = 140,000);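 active = above mean plus 3 SD of all compounds, about 5% in these data, not always enough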;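 note: 0% = vehicle buffer wells and 100% = reference agonist at full effect; tested in CHO reporter cells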
Target sequence (O43603 whole entry, looked up): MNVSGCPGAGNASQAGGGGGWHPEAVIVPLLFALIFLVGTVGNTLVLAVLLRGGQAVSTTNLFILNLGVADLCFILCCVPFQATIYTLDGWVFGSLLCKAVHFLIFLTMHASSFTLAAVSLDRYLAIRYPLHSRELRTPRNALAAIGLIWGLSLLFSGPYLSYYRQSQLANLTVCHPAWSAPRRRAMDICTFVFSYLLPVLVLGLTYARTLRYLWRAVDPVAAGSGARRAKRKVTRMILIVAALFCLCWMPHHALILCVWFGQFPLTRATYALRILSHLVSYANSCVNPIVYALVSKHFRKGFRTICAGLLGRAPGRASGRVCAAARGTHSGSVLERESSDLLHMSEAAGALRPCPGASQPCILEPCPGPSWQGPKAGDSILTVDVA
PKD1 inh: inhibitors of human PKD1 kinase. inhibition, %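 (about 10 µM by stock and volumes)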. Q15139. PKD1 kinase fluorescence polarization assay. AID 797. actives 0.056% (n = 200,000);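 active = inhibition of 50% or more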;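 note: controls were vehicle for no effect and a reference inhibitor for full effect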
INS promoter inh cell count: further read-out of INS promoter inh, marked with its call; normalized cell count, %; measured here: cell count, toxicity; reference of the scale not given here;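 cells exposed to compound for 48 h; stained nuclei by imaging scaled within each plate; lower means fewer cells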
HSV replic up primary fold: also measured in HSV replic up; calls as there; fold increase; compound at 10 µM; measured here: primary screen fold increase 10 uM; tested in PC3 cells;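 GFP signal in the first replicate; 1 = infected wells without compound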
The depositor's hits bear a star; i = inactive; nt = not tested or not shown.

Preview:
SMILES	INS promoter inh	INS promoter inh cell count	RGS16-Gao HTS	HSV replic up	HSV replic up primary fold	GALR2 agonist	PKD1 inh
NC(=O)CSC1=Nc2ccccc2C2=NC(CC(=O)NCc3cccs3)C(=O)N12 (stereo not given)	-55	103	79	i	0.87	-1.4	-2
CCOC(=O)C1CCN(Cc2nc3ccc(Cl)cc3n2CCO)CC1	nt	nt	104	i	0.86	-3.4	3
CCOc1cc(CNCC(C)C)cc(Cl)c1OCc1ccccc1	-14	141	101	i	1	nt	-2
Cc1cc(C(=O)C[N+]2(C)CCOCC2)c(C)n1-c1ccc(Br)cc1	29	89	168	i	0.87	nt	-2
COC(=O)CNC(c1ccccc1)c1cc(C)ccc1NS(=O)(=O)c1ccc(C)cc1 (stereo not given)	25	142	112	i	0.99	0.8	4

The list itself, from the first entry:
SMILES	INS promoter inh	INS promoter inh cell count	RGS16-Gao HTS	HSV replic up	HSV replic up primary fold	GALR2 agonist	PKD1 inh
NC(=O)CSC1=Nc2ccccc2C2=NC(CC(=O)NCc3cccs3)C(=O)N12 (stereo not given)	-55	103	79	i	0.87	-1.4	-2
CCOC(=O)C1CCN(Cc2nc3ccc(Cl)cc3n2CCO)CC1	nt	nt	104	i	0.86	-3.4	3
CCOc1cc(CNCC(C)C)cc(Cl)c1OCc1ccccc1	-14	141	101	i	1	nt	-2
Cc1cc(C(=O)C[N+]2(C)CCOCC2)c(C)n1-c1ccc(Br)cc1	29	89	168	i	0.87	nt	-2
COC(=O)CNC(c1ccccc1)c1cc(C)ccc1NS(=O)(=O)c1ccc(C)cc1 (stereo not given)	25	142	112	i	0.99	0.8	4
CCOC(=O)c1ccc(NC(=S)N2CCC(C(N)=O)(N3CCCCC3)CC2)cc1	nt	nt	99	i	0.99	nt	9
CNC(=O)C1C(=S)NC(N)=C(C#N)C1c1ccccc1 (stereo not given)	2	90	79	i	0.61	-0.7	3
CC1=C/C(=N\Nc2ccccc2[N+](=O)[O-])CC(C)(C)C1	0	59	106	i	0.91	-0.6	2
O=C(CN1C(=O)c2ccccc2C1=O)Nc1ccc(-c2nc3ccccc3o2)cc1	-129	89	82	i	0.94	1.0	0
COc1ccc(/C=N/NC(=O)c2ccc(C)cc2)cc1CN1CCN(c2ccc(F)cc2)CC1	nt	nt	98	i	0.97	-1.0	-10
COc1ccc(OC)c(C(=O)NC(CC(N)=O)c2ccc(N3CCC(N4CCCC4)CC3)c([N+](=O)[O-])c2)c1 (stereo not given)	nt	nt	99	i	0.96	nt	nt
CC(=O)Nc1ccc(-c2csc(N/N=C\c3ccncc3)n2)cc1	nt	nt	100	i	0.93	nt	nt
COc1ccc(S(=O)(=O)N2CCc3ccccc32)cc1C(=O)OCc1c(C)noc1C	-18	64	104	i	0.85	-1.5	-1
Cc1ccc2c(c1)NC(=O)C(CC(=O)NCc1ccc(F)cc1)O2 (stereo not given)	nt	nt	102	i	0.79	-1.0	0
CC(C)Cn1cc(C(=O)NCc2cccs2)c2c3ccccc3n(C)c2c1=O	nt	nt	100	i	1.2	2.6	-1
CSc1nc(S(=O)(=O)c2ccc(C)cc2)c(Cl)s1	nt	nt	96	i	1	nt	6
Cc1cc2c(=O)oc(-c3ccc(F)cc3)nc2s1	8	102	106	i	0.96	nt	-6
Cc1noc(C)c1CSCC(=O)OCC(=O)N1CC(=O)Nc2ccccc21	nt	nt	96	i	1.1	-2.2	-3
CC(C)(C)C(=O)/C(C#N)=C/c1cccs1	nt	nt	100	i	0.91	nt	nt
Cc1noc(C)c1-c1nc(CS(=O)(=O)c2ccc(F)cc2)no1	nt	nt	102	i	1.1	nt	nt
c1ccc(-n2nnnc2-n2nnc3ccccc32)cc1	nt	nt	96	i	0.96	-1.8	-15
Cc1ccc(S(=O)(=O)c2nc(Nc3ccccc3)sc2Cl)cc1	nt	nt	101	i	0.93	-1.3	-8
CCCCNC(=O)c1ccccc1NC(=O)CN(c1ccccc1)S(=O)(=O)N(C)C	-21	61	110	i	1.1	-0.9	-9
O=C1CC(C(=O)N2CCC(N3CCC(C(=O)NC4CC4)CC3)CC2)c2ccccc21 (stereo not given)	nt	nt	104	i	1.1	nt	1
CCN(CC)S(=O)(=O)c1cccc(C(=O)NC2CCCCC2)c1	48	69	107	i	0.87	-1.9	-1
COc1ccc(OC)c2[nH]c(=O)c(CCNC(=O)c3ccc(S(=O)(=O)N4CCCCC4)cc3)cc12	nt	nt	103	nt	nt	-1.0	-10
COc1cccc(OC)c1-c1nnc(-c2cn(C)c3ccccc23)o1	nt	nt	85	i	0.74	0.1	9
CC(C)CCN1CCN(Cc2cccs2)CC1CCO (stereo not given)	nt	nt	100	i	1	nt	-3
CN(C)NC(=O)c1ccsc1NC(=O)c1ccc(S(=O)(=O)N(C)C)cc1	nt	nt	97	i	0.8	nt	1
COc1cc(/C=N/NC(=O)CNC(=O)c2cccs2)ccc1O	nt	nt	102	i	1	-1.0	-12
O=c1c2cc(NC(=S)N3CCCCC3)ccc2nc2n1CCCCC2	nt	nt	100	i	0.94	nt	4
Cc1ccc(/C=C/S(=O)(=O)NCC(=O)OCC(=O)N2CC(=O)Nc3ccccc32)cc1	nt	nt	104	i	1	nt	nt
CC(C)C(NS(=O)(=O)c1cccc2nsnc12)C(=O)NCc1ccco1 (stereo not given)	nt	nt	98	i	1	nt	nt
CN(CC(=O)N1CCN(c2ccccn2)CC1)S(=O)(=O)c1ccccc1	18	107	101	i	0.98	-1.6	2
O=C(CN1C(=O)C2CCCCN2C(=O)c2ccccc21)Nc1ccc(F)cc1 (stereo not given)	-56	90	96	i	1.1	nt	-1
CC(=O)Nc1ccc(C(=O)OCC(=O)NC(=O)NC(C)(C)C)cc1	0	130	97	i	0.98	-0.8	-10
C=CCn1c(SCC(=O)Nc2cccnc2Cl)nnc1-c1ccc(Cl)cc1	-53	101	188	i	1	-2.5	6
O=C(NCc1cccs1)c1ccc2c(c1)ncn2C1CCCC1	nt	nt	91	i	0.86	-2.5	-4
CC(=O)Oc1ccc(C(=O)OCC(=O)c2c(N)n(C)c(=O)n(C)c2=O)cc1OC(C)=O	nt	nt	93	i	1	nt	3
COc1ccc(CCNC(=O)c2n[nH]c(=O)c3ccccc23)cc1	-17	49	102	i	0.94	-1.4	-4
Cn1c(CCNC(=O)c2cccs2)nnc1SCC(=O)N1CCN(c2ccccc2)CC1	-4	114	97	i	0.96	0.3	-7
COc1ccc(-c2nc3c(=O)n(C)c(=O)[nH]c3n2CCc2ccccc2)cc1	22	79	101	i	0.81	-2.1	-4
COc1ccc(N2C(=O)CCC(C(=O)Nc3ccccn3)C2c2ccc(OC)c(OC)c2)cc1 (stereo not given)	-20	101	99	i	0.96	-1.9	-38
COc1cc(C(=O)OCCN2CCOCC2)cc(OC)c1OC	14	78	99	i	0.99	-0.9	-2
O=C(c1cc(C(=O)N2CCOCC2)c2nc3ccccc3n2c1)c1ccccc1O	nt	nt	99	i	1.1	nt	nt
CCCCOC(=O)Cn1c(=O)n(CC(=O)OCCCC)c2cc(C)ccc21	19	116	102	i	0.88	-1.5	-7
Cc1cc(C)n(Cc2cccc(F)c2)c(=O)c1C#N	nt	nt	101	i	1	-0.7	-14
CCCS(=O)(=O)c1nc(S(=O)(=O)c2ccc(C)cc2)c(NCc2ccc3c(c2)OCO3)s1	23	104	103	i	0.96	-0.7	8
O=C(CSC1=Nc2ccccc2C2=NC(CC(=O)NC3CCCCC3)C(=O)N12)NCc1ccco1 (stereo not given)	22	78	107	i	1	-1.5	-5
CN1CCN(C2OC(=O)c3ccccc32)CC1 (stereo not given)	50	125	96	i	0.88	-2.9	-4
O=C(CSc1nc2ccccc2n1Cc1ccc(Cl)cc1)N/N=C/c1ccccc1C(=O)O	nt	nt	103	i	0.99	nt	-4
O=C(NCCc1ccccc1)c1ccnc(/C=N/O)c1	-27	99	101	i	1.1	-1.6	5
CCOc1cnc(-c2c(-c3c(Cl)cccc3Cl)noc2C)o1	nt	nt	101	i	1.1	nt	-1
CSc1nc2n(n1)C(c1cc(Br)ccc1F)C(C(=O)N(C)C)=C(C)N2 (stereo not given)	-23	43	104	i	1	-0.4	-9
Nc1cccc(S(=O)(=O)Nc2ccc(Br)cc2)c1	nt	nt	98	i	1.3	nt	nt
CCCC/C(C)=N\NC(=O)CNS(=O)(=O)c1ccc([N+](=O)[O-])cc1	18	92	100	i	1	0.0	-6
CC1=NN(C(=O)c2ccc(Cn3cc(Br)c([N+](=O)[O-])n3)o2)C(O)(C(F)(F)F)C1 (stereo not given)	-47	73	110	i	1	-1.5	-4
CN(C)C=NC(=O)c1cc(C(=O)c2ccc(F)cc2)c[nH]1	26	133	100	i	0.88	nt	-4
COCc1cc(C)nc(OCC(=O)N/N=C/c2ccc(OC)c(OC)c2)c1C#N	17	119	97	i	0.94	1.1	-6
Cc1ccc(C)c(NC(=S)NC(NC(=O)Cc2cccc3ccccc23)C(Cl)(Cl)Cl)c1 (stereo not given)	4	105	91	i	0.44	1.1	-6

Next part.
SMILES	INS promoter inh	INS promoter inh cell count	RGS16-Gao HTS	HSV replic up	HSV replic up primary fold	GALR2 agonist	PKD1 inh
COC(=O)c1ccc(COc2ccccc2/C=C(\C#N)C(=O)Nc2c(C)cccc2C)cc1	-29	151	98	i	0.61	1.4	10
C=CCn1c(SCc2nc3ccccc3c(=O)[nH]2)nc2ccccc2c1=O	-21	114	95	i	1	-0.6	-1
Cc1cc(O)c(C(C)C)cc1NC(=O)c1ccc(Cl)cc1	-33	105	98	i	0.96	-2.1	1
N#CNC(=Nc1cccc(C(F)(F)F)c1)SCc1ccc(C(=O)O)cc1	nt	nt	110	i	1.1	nt	nt
COc1ccc(N2CCN(C(=O)CSc3nnc4c(C)cc5c(C)cc(C)cc5n34)CC2)cc1	-36	104	101	i	0.98	-1.8	1
CCCCC(CC)CNC(=O)C1CC=CCC1C(=O)O (stereo not given)	-12	130	105	i	1.1	-0.8	-10
O=C(Nc1cccc(NC(=O)c2cccnc2)c1)c1cccnc1	13	79	101	i	0.74	0.1	6
COc1ccc(C(C(=O)Nc2ccc3c(c2)OCO3)N(C)C(=O)Cc2c[nH]c3ccccc23)cc1 (stereo not given)	31	108	99	i	0.99	-0.7	3
COc1ccc(-c2cnnn2-c2ccc(NC(=O)c3ccc(S(=O)(=O)N4CCCCC4)cc3)cc2)cc1	nt	nt	14	i	0.77	0.6	-10
Cc1ccccc1N1C(=O)CC(Nc2ccc3c(c2)OCO3)C1=O (stereo not given)	nt	nt	97	i	0.73	nt	7
COc1ccc(C)cc1N1C(=N)/C(=C2/Nc3ccccc3S2)C(c2ccccc2)C1=O (stereo not given)	-13	47	100	i	0.56	0.5	-8
Cc1nnc(NC(=O)CSc2nc(CC(C)C)nc3c2c(=O)n(C)c(=O)n3C)s1	23	70	104	i	1	nt	-7
CCCSc1nc(NCc2ccco2)c2c3c(sc2n1)COC(C)(CC)C3 (stereo not given)	-19	101	108	i	0.53	0.4	-6
Cc1ccc(C(=O)NCCSC(C)(C)C)cc1[N+](=O)[O-]	8	130	109	nt	nt	1.2	-3
CCOC(=O)c1ccc(Oc2nc(NC(C)(C)C)nc(N(C)C)n2)cc1	35	59	99	i	1.1	0.3	-5
Cc1cc(C)cc(OCCNS(=O)(=O)c2cccs2)c1	nt	nt	106	i	1.1	nt	2
COc1cccc(NC(=O)C2CCN(c3ncccn3)CC2)c1	-19	64	100	i	0.74	-1.1	-2
COc1cc(CN2CCNC(=O)C2CC(=O)N(C)Cc2ncc[nH]2)cc(OC)c1 (stereo not given)	50	99	102	i	1.1	nt	-4
O=C1NC(c2cccs2)Nc2ccccc21 (stereo not given)	58	148	102	i	1	0.2	5
O=[N+]([O-])c1cccc(/C=N/Nc2nc(C(Cl)(Cl)Cl)nc3ccccc23)c1	0	115	104	i	0.91	-1.3	1
Cc1ccccc1OCc1nc(-c2cccnc2)no1	48	110	102	i	0.96	nt	-7
COc1ccc(C(=O)Nc2cccc(S(C)(=O)=O)c2)cc1	nt	nt	106	i	1	nt	7
Cc1ccc(C(=O)CCC2CCCC2=O)cc1 (stereo not given)	nt	nt	100	i	0.91	-1.9	-2
O=C(CSc1nc2ccccc2[nH]1)Nc1nc(-c2cccc(Br)c2)cs1	nt	nt	101	i	1.2	-0.8	-5
C/C(=N\N)c1c(-c2ccccc2)c2cc(C)ccc2[nH]c1=O	nt	nt	108	i	1	nt	nt
O=C(CCNc1ccccc1)c1cccc([N+](=O)[O-])c1	48	78	102	nt	nt	-1.6	5
O=C(Nc1ccccc1C(F)(F)F)c1ccc(CN2CCC(Cc3ccccc3)CC2)cc1	7	61	99	i	0.97	0.1	-16
O=C(NCc1ccco1)C1CCCCC1	nt	nt	99	i	0.89	nt	5
